GIV-Gai inh = GIV-Galpha-i interaction inhibition. P08753. Galpha-i3/FITC-GIV peptide fluorescence polarization, 90 min; stronger effect = lower value; scaled: aluminum fluoride 0%, vehicle 100%. percent of control (FP), % (no concentration beside the values). actives 0.42% (n = 210,000);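 active = replicate mean at 85% of control or lower, very high polarization wells dropped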;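 also: wells of about 15 µL received 100 nL stock; the first replicate is given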
Target sequence (P08753 whole entry, looked up): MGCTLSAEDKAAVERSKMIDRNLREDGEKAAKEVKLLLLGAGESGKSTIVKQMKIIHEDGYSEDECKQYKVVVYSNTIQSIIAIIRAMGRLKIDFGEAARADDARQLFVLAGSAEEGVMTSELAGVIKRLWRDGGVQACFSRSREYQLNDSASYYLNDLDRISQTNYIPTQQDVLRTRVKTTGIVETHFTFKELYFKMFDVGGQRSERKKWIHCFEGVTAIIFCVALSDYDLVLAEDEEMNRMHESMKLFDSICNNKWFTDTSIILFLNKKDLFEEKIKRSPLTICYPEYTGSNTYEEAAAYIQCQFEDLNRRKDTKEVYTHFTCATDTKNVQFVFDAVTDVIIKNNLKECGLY
* = called active by the depositor.

item	molecule	GIV-Gai inh
1	COc1ccc(C2CC(=O)Nc3c2c(C)nn3-c2nncc(-c3ccc(C)cc3)n2)cc1OC(C)C (stereo not drawn)	98
2	CCc1nc(-c2csc(S(=O)(=O)N3CCC(C(=O)NC4CC4)CC3)c2)no1	109
3	Cc1ccc(NC(=O)C(Cc2c[nH]c3ccccc23)NC(=O)Oc2ccccc2)cc1C (stereo not drawn)	105
4	C/C(O)=C1\C(=O)NC2(C)CC1c1ccccc1O2 (stereo not drawn)	107
5	O=C(NCc1ccnc(N2CCSCC2)c1)Nc1ccc(F)cc1F	99
6	COc1ccc(C2N3CC4(C)CN2CC(C)(C3)C4=O)cc1 (stereo not drawn)	112
7	CCN(Cc1ccccc1)c1ccc(NC(=O)c2ccccc2F)cc1C(=O)O	107
8	COC(=O)Cc1nc(Nc2cccc(C(F)(F)F)c2)c2c(C)c(C)sc2n1	99
9	CCN(CC)C(=O)C1CCCN(c2ncnc3c2c(-c2ccccc2)cn3-c2ccc(F)cc2)C1 (stereo not drawn)	103
10	NC(=O)c1c(NC(=O)c2ccc3c(c2)OCCO3)sc2c1CCCCC2	106
11	CCOc1ccccc1N/C(SCc1ccccc1C)=C(/C#N)C(=O)NCCc1ccc(OC)c(OC)c1	101
12	N#CC1=C(N)C(C#N)(C#N)C(c2cccc3ccccc23)C2CCCC=C12 (stereo not drawn)	110
13	COc1cn(CC(=O)NCCc2ccccc2)c(CN2CCCCC2)cc1=O	97
14	O=c1ccn(-c2cccc(F)c2)nc1-c1nc(-c2cccc(Br)c2)no1	104
15	CCN(CC)c1ccc(C2Nc3ccc4ccccc4c3C3=C2C(=O)CC(C)(C)C3)c(OCc2ccc(Cl)cc2Cl)c1 (stereo not drawn)	109
16	O=C(CC1(O)C(=O)N(Cc2ccc(Cl)cc2)c2ccccc21)c1ccc2c(c1)OCCO2 (stereo not drawn)	108
17	O=C1CC(c2ccccc2Cl)CC2=C1C(c1cccnc1)Nc1ccccc1N2 (stereo not drawn)	104
18	COCCCN1C(=O)/C(=C/c2c(NCCCn3ccnc3)nc3ccccn3c2=O)SC1=S	262
19	O=C(CSc1nc(=O)n(Cc2ccncc2)c2c1CCC2)N1CCCc2ccccc21	106
20	c1cc2c(cc1-c1noc(C3CCOC3)n1)nnn2CCN1CCCCC1 (stereo not drawn)	108
21	O=S(=O)(NCC1CCN(Cc2ccc(Cl)cc2)CC1)c1ccc2c(c1)-c1oncc1CO2	106
22	FC(F)(F)c1cccc(-n2cc(-c3ccccc3)c3c(NCCCn4ccnc4)ncnc32)c1	125
23	O=C(Oc1ccc(NC(=O)c2cc(S(=O)(=O)N3CCOCC3)ccc2Cl)cc1)c1cccs1	120
24	COc1ccc(-c2ccc(/C=C3\C(=O)C(C(C)C)CCC3C)cc2)cc1 (stereo not drawn)	99
25	COc1ccccc1CNC(=O)c1ccc(Oc2nccnc2Sc2ccc(Cl)cc2)cc1	100
26	Cc1cc(Br)ccc1N1C(=O)/C(=C/c2ccc([N+](=O)[O-])cc2)C=C1c1ccccc1	110
27	CCC(=O)Nc1ccc(N(CC)Cc2ccccc2)c(C(=O)O)c1	107
28	CC(=O)Nc1ccc(NC(=O)CSC2=C(C#N)C(c3ccc4c(c3)OCO4)C3=C(CCCC3=O)N2)cc1 (stereo not drawn)	105
29	CC(C)NC(=O)C1CCN(C(=O)c2ccc(NC(=O)c3ccccc3Cl)cc2)CC1	106
30	O=C1CCc2cc(S(=O)(=O)N3CCc4ccccc4C3)cc3c2N1CCC3	108
31	CC1(C)OC(=O)N(CCN2C(=O)OC(C)(C)C2(C)O)C1(C)O (stereo not drawn)	119
32	Cc1c(Cl)cccc1NC(=O)Nc1ccc(CCc2nc3ccccc3[nH]2)cc1	99

Entries 27 to 32 of the list above:
item	molecule	GIV-Gai inh
27	CCC(=O)Nc1ccc(N(CC)Cc2ccccc2)c(C(=O)O)c1	107
28	CC(=O)Nc1ccc(NC(=O)CSC2=C(C#N)C(c3ccc4c(c3)OCO4)C3=C(CCCC3=O)N2)cc1 (stereo not drawn)	105
29	CC(C)NC(=O)C1CCN(C(=O)c2ccc(NC(=O)c3ccccc3Cl)cc2)CC1	106
30	O=C1CCc2cc(S(=O)(=O)N3CCc4ccccc4C3)cc3c2N1CCC3	108
31	CC1(C)OC(=O)N(CCN2C(=O)OC(C)(C)C2(C)O)C1(C)O (stereo not drawn)	119
32	Cc1c(Cl)cccc1NC(=O)Nc1ccc(CCc2nc3ccccc3[nH]2)cc1	99

(cont.)
item	molecule	GIV-Gai inh
33	CC(C)Oc1ccc(NC(=O)C2CCCN(S(=O)(=O)Cc3ccccc3Cl)C2)cc1 (stereo not drawn)	100
34	COc1ccc(C2C(C(C)=O)=C(C)N=c3s/c(=C/c4ccc(-c5ccc([N+](=O)[O-])cc5)o4)c(=O)n32)cc1 (stereo not drawn)	112
35	COC(=O)C1=C(C(=O)OC)SC(=C2C(=S)C(C)(C)N(C(=O)C(C)C)c3ccc(C)cc32)S1	113
36	CCCCC(C(=O)Nc1ccccc1)N1C(=O)C2C3c4ccccc4C(c4ccccc43)C2C1=O (stereo not drawn)	114
37	CCCc1cc(C2CCCN2Cc2ccc(C)s2)no1 (stereo not drawn)	107
38	COC(=O)c1ccc2c(=O)n(-c3ccc(Cl)cc3)c(N3CCN(C)CC3)nc2c1	100
39	Clc1ccc2nc(NCCN3CCOCC3)nc(-c3ccccc3)c2c1	116
40	Cc1ccc(C(=O)NC(C)CCc2ccccc2)cc1NC(=O)c1nsc2ccccc12 (stereo not drawn)	107

Quoted from the listing.
no. 35 in GIV-Gai inh is entered as 113
no. 34 in GIV-Gai inh is entered as 112
no. 37 in GIV-Gai inh is entered as 107

(list continues)
item	molecule	GIV-Gai inh
41	Cc1cccc(Nc2nc3nonc3nc2N/N=C\c2cn(Cc3ccc(Cl)cc3Cl)c3ccccc23)c1C	90
42	CC1CCCCC1NC(=O)CCCCCn1c(=S)[nH]c2ccccc2c1=O (stereo not drawn)	121
43	COc1cc([N+](=O)[O-])ccc1-c1ccc(/C=C2\C(=O)N(c3ccc(C(=O)OC(C)C)cc3)N=C2C)o1	101
44	CNC(=O)N1CCCC(C)(C(=O)NCc2ccc(F)cc2)C1 (stereo not drawn)	104
45	COc1cccc(C2Nc3ccc4ccccc4c3C3=C2C(=O)CC(C)(C)C3)c1O (stereo not drawn)	133
46	Cc1cccc(C2NC(=O)c3c(sc4c3CCCC4)N2)c1O (stereo not drawn)	107
47	O=[N+]([O-])CC(c1ccccc1)P(=O)(c1ccccc1)c1ccccc1 (stereo not drawn)	108
48	CC(NC(=O)c1ccc(C2Nc3ccccc3S(=O)(=O)N2)cc1)c1ccccc1 (stereo not drawn)	96
49	Cn1c(=O)n(CCC(=O)N2CCCC2)c(=O)c2cc(S(=O)(=O)N3CCCC3)ccc21	110
50	COc1ccc(CNC(=O)C2CCN(c3ncccc3-c3nc(-c4cccc(C)c4)no3)CC2)cc1	105
51	Cc1ccc(C(=O)Nc2cc(-c3noc(C)n3)sc2C)cc1	97
52	O=C1/C(=C\c2cn(-c3ccccc3)nc2-c2cc3c(ccc4ccccc43)oc2=O)NC(=S)N1c1ccccc1	109
53	CCN1CCN(C(=O)[C@@H]2CCCN2C(C)=O)CC1	102
54	COc1ccc(-c2c(OC(=O)CCN3C(=O)/C(=C/c4cccs4)SC3=S)ccc3oc(=O)sc23)cc1	105
55	O=C1NCCN1Cc1ccccc1Cl	100
56	CCCNC(=O)c1cn(CC)nc1S(=O)(=O)N1CCC(C)CC1	108
57	CCOC(=O)Nc1ccc2c(c1)N(C(=O)NC)c1ccccc1CC2	101
58	O=C1C=C(c2cccs2)C[C@H](c2ccccc2)[C@H]1n1cnc([N+](=O)[O-])c1	110
59	O=C(NN1S(=O)(=O)c2ccccc2S1(=O)=O)C(O)c1ccccc1 (stereo not drawn)	108
60	Cn1c(SCC(=O)c2ccc3c(c2)OCCCO3)nnc1-c1ccc2c(c1)OCCCO2	101
61	CCCNC(=O)C1CCCN(c2nc3ncn(CC(=O)N4CCc5ccccc5C4)c(=O)c3s2)C1 (stereo not drawn)	99
62	c1cc(-c2nnc(C3CCCC3)o2)ccn1	103
63	COc1cccc(NC(=O)c2cccc(-n3cnc4c(sc5nc(C)cc(C)c54)c3=O)c2)c1	106
64	O=[N+]([O-])c1c(NCCCO)cc(N(CCc2ccccc2)Cc2ccccc2)c2nonc12	106

Six compounds already listed, arranged by molecular weight, low to high.
item	molecule	GIV-Gai inh
4	C/C(O)=C1\C(=O)NC2(C)CC1c1ccccc1O2 (stereo not drawn)	107
46	Cc1cccc(C2NC(=O)c3c(sc4c3CCCC4)N2)c1O (stereo not drawn)	107
59	O=C(NN1S(=O)(=O)c2ccccc2S1(=O)=O)C(O)c1ccccc1 (stereo not drawn)	108
30	O=C1CCc2cc(S(=O)(=O)N3CCc4ccccc4C3)cc3c2N1CCC3	108
29	CC(C)NC(=O)C1CCN(C(=O)c2ccc(NC(=O)c3ccccc3Cl)cc2)CC1	106
61	CCCNC(=O)C1CCCN(c2nc3ncn(CC(=O)N4CCc5ccccc5C4)c(=O)c3s2)C1 (stereo not drawn)	99

Additional entries.
item	molecule	GIV-Gai inh
65	COc1cc(C2C(C#N)=C(N)Oc3n[nH]c(C)c32)ccc1OCc1c(F)cccc1Cl (stereo not drawn)	103
66	CCOC(=O)c1cnc2ccc(C)cc2c1Nc1cccc(C)c1	119
67	CSC1=NC(=Nc2ccccc2C)C2(CCC(C(C)(C)C)CC2)N1c1ccccc1 (stereo not drawn)	102
68	CCCCNC(=O)c1ccc(-c2cc(N3CCCC3)ncn2)cc1	99
69	CCCCCn1c(SCc2ccccn2)nc2cc(C(=O)N3CCN(C(=O)OCC)CC3)ccc2c1=O	116
70	c1cc(-c2nc(-c3ccnc(N4CCCC4)c3)no2)ccn1	99
71	N#CC1=C(N)Oc2c(C=Nc3ccccc3)ccc(O)c2C1c1ccc([N+](=O)[O-])cc1 (stereo not drawn)	115
72	Cc1ccccc1C(=O)Nc1nc2ccc(S(N)(=O)=O)cc2s1	98

An excerpt of these results, with values ahead of the structure:
cpd | GIV-Gai inh | smiles
68 | 99 | CCCCNC(=O)c1ccc(-c2cc(N3CCCC3)ncn2)cc1
69 | 116 | CCCCCn1c(SCc2ccccn2)nc2cc(C(=O)N3CCN(C(=O)OCC)CC3)ccc2c1=O

(further entries)
item	molecule	GIV-Gai inh
73	COC(=O)C1=C(N)N(c2ccc(S(N)(=O)=O)cc2)C2=C(C(=O)CC(C)(C)C2)C1c1ccc2c(c1)OCO2 (stereo not drawn)	103
74	O=S(=O)(NCCc1n[nH]c(Cc2ccccc2)n1)c1cc(F)cc(F)c1	95
75	c1ccc(-c2nc3ccccc3c3nnc(SCc4ccc5nonc5c4)n23)cc1	99
76	CC(C)CNC(=O)CN1c2ccccc2NC2=C(C(=O)CC(C)(C)C2)C1c1ccc(F)cc1 (stereo not drawn)	110
77	O=C1N(CN2CCOCC2)c2ccccc2C12OCC(CCl)O2 (stereo not drawn)	107
78	COC(=O)c1cc(N2C(=O)/C(=C/c3ccc(-c4ccc(Br)cc4)o3)C=C2c2ccccc2)ccc1Cl	113
79	CC1CCCCN1C(=O)c1ccc(N2CC3CC(C2)c2cccc(=O)n2C3)c(NC(=O)Cc2c(F)cccc2Cl)c1 (stereo not drawn)	103
80	CC(=O)NC1C(OCc2ccccc2)OC(COC(c2ccccc2)(c2ccccc2)c2ccccc2)C(O)C1O (stereo not drawn)	111
81	CC(=O)Nc1cnc(N2CCN(c3cccc(C)c3)C(C)C2)c(C(=O)O)c1 (stereo not drawn)	105
82	Cc1cc(C)cc(NC(=O)Nc2ccccc2OCc2cc(=O)n3cccc(C)c3n2)c1	99
83	COCCCN1C(=O)/C(=C/c2c(NCCc3ccccc3)nc3ccccn3c2=O)SC1=S	118
84	c1csc(CN2CCN(c3ncnc4c3CCC4)CC2)c1	101
85	Cc1ccc(N2C(=S)N=C(Nc3cccc(C)c3)C23CCCCC3)cc1	104
86	COc1ccc(NC(=O)c2ccc3nn(CC(=O)Nc4ccccc4)c(=O)n3c2)cc1	98
87	CCOC(=O)c1c(S(=O)(=O)N2CCCC(C(=O)Nc3ccc(C)cn3)C2)c(C)n(CC)c1C (stereo not drawn)	100
88	C=CCn1nnc(NCc2ccc(-c3ccc(Br)cc3)o2)n1	98
89	CCOc1ccc(C2(O)CN(c3ccccc3C)C3=[N+]2CCCC3)cc1 (stereo not drawn)	113
90	O=C(CSC1=NCCS1)N1c2ccccc2Sc2ccc(C(F)(F)F)cc21	106
91	Cc1nn(-c2ccc3nnc(C)n3n2)c2c1C(c1ccccc1F)CC(=O)N2 (stereo not drawn)	98
92	CCOC(=O)c1cc(C#N)c(SCc2ccc(C(C)(C)C)cc2)nc1N	107
93	CCOC(=O)N1CCC(NC(=O)c2cnn3c(C(F)(F)F)cc(-c4ccc(OC)c(OC)c4)nc23)CC1	99
94	CCOCCCNC(=O)C1CCCN(c2ncc(-c3ccc(F)cc3)cn2)C1 (stereo not drawn)	104
95	COc1ccc(C2Nc3ccc(Cl)cc3C(c3ccccc3)O2)c(OC)c1 (stereo not drawn)	111
96	O=C(NC1CCCCC1)N1CCN(Cc2nc3cccnc3n2-c2cccc(F)c2)CC1	107
97	CCOC(=O)C1=CN(Cc2ccc(Cl)cc2)C=C(C(=O)OCC)C1c1ccc(OC)c(OC)c1	106
98	Cc1nn(-c2nc3ccccc3n2C)c2c1C(c1ccc(F)c(Br)c1)CC(=O)N2 (stereo not drawn)	109
99	CCCN(CCC)c1nc(Nc2ccc(Cl)cc2)nc(N2CCOCC2)n1	117
100	COc1cccc(C2CC(=O)Nc3c2c(C)nn3-c2ccc3nnc(C)n3n2)c1OCc1ccccc1 (stereo not drawn)	106
101	Cc1ccc(S(=O)(=O)N2CCCN(S(=O)(=O)c3ccc(C)c(C)c3)CC2)cc1C	110
102	Cc1cc(C)cc(-n2ncc3c(N4CCOCC4)ncnc32)c1	96
103	Cn1c(=O)c2c(nc3n(Cc4ccccc4)c(-c4ccc(Br)cc4)cn23)n(C)c1=O	105
104	CN1C(=O)/C(=C2/Sc3ccccc3N2c2ccccc2)SC1=S	110
105	O=C(C1CC1)N1Cc2c(sc3c2CCCC3)-n2cccc2C1c1ccc(Cl)cc1 (stereo not drawn)	106
106	Cc1ccc(CNC(=O)COc2ccc(-c3cnc4ccccc4n3)cc2)cc1	103

Compound activity as filed in PubChem.

These rows are one share of the data (hit frequency here may not be typical).
